# Rango release inh – inhibitors of RanGTP-induced Rango-importin beta complex dissociation | Potency, µM (doses to about 46.1 µM), inactives show top-dose activity change, negative = inhibition | 340,000 compounds, 0.071% hits | Biochemical FRET Rango-importin beta, RanGTP-induced dissociation | O95149+P62826; active means falling FRET ratio curve, often poorly fitted, with flat reads before Ran was added; inconclusive means other falling curves, or compound fluorescence or quenching; inactive means flat or rising ratio curve;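 further: potency means the concentration at half of the fitted maximal effect; % of control where 0% means no effect; nearly all actives have a fitted effect of over 45% in size; -100% = wells without RanGTP and RCC1; the record marks most hits as doubtful in a second field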
#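 Rango/importin beta premix (0.1/0.25 uM final), PBS + 1 mM DTT + 0.02% Tween-20 + 0.1% BSA; cpd 5 min RT; FRET pre-read; + RanGTP-RCC1 (0.6 uM Ran, 2 mM GTP, 0.2 uM RCC1); 45 min RT; FRET post-read, ex 430, em 486/530 nm.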
# miR-21 reporter – raises the signal of a miR-21 reporter | Potency, µM (highest dose often 38.3 µM), inactives show at the top dose reporter change, positive = more light | HeLa miR-21 FLuc reporter, luciferase, 48 h | 340,000 tested, under 10 active; active = well fitted rising curve with a large enough effect; inconclusive = small, poorly fitted or top-dose-only effect; inactive = no such curve, though single readings can be large or run the other way;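 further: % of control where 0% means no effect; miR-21 action dims this reporter so a rising signal means less miR-21 action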
#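 HeLa cells endogenously expressing miR-21, stably carrying CMV-driven firefly luciferase with a downstream miR-21 binding site, 2000 cells/well. Titrations up to approximately 40 uM, 48 hours; luciferase luminescence read.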
# GLA inh pH 4.5 – blocks human alpha-galactosidase A at pH 4.5; P06280; purified enzyme, 4-MU-alpha-Gal fluorescence, pH 4.5; activity change, negative = inhibition, % at 105 µM; 230,000 tested, under 10 active; inconclusive = small, poorly fitted or top-dose-only inhibition, or a rising curve; inactive = flat fitted curve, though single readings scatter; no compound was filed as active;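 further: 0% = full activity with enzyme and -100% = basal without enzyme; dose as in the result columns while the protocol names 77 µM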
# Rango-impB inh – Rango-importin beta binding inhibition; Q14974; Rango CFP/YFP FRET sensor + importin beta, 45 min; Potency, µM (doses to about 92.2 µM), for the others: at the highest dose inhibition of complex formation; 340,000 compounds, 0.031% hits; AID 540263; active = rising FRET ratio curve, often small or poorly fitted; inconclusive = mostly compound fluorescence or quenching in the first reads; inactive = flat curves in all reads;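 further: potency means the concentration at half of the fitted maximal effect; 0% = DMSO wells and 100% = buffer wells lacking importin beta; nearly all actives have a fitted effect of over 15% in size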
# Target sequence (Q14974 whole entry, looked up): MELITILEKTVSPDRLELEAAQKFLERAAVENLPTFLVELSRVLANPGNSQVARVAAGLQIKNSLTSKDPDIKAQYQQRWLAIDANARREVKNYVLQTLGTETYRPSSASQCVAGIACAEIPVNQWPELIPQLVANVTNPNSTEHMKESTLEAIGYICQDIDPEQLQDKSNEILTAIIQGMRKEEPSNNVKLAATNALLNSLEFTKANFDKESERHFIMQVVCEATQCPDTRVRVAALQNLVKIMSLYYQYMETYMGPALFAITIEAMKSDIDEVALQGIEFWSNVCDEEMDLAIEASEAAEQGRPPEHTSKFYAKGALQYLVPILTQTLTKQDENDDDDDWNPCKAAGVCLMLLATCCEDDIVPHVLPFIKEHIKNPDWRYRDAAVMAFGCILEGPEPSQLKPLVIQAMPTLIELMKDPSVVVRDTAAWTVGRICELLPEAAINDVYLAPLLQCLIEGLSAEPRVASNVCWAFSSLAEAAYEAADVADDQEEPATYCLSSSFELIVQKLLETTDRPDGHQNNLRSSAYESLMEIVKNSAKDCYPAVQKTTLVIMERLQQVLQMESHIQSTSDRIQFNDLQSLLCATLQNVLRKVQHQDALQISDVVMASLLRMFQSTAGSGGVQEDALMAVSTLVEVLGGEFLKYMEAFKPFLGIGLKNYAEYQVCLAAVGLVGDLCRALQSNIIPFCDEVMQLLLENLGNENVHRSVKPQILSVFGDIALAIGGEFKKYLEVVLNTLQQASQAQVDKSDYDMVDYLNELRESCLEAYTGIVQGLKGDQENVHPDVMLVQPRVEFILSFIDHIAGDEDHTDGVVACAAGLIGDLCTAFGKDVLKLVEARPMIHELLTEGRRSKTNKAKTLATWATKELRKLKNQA
#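 FRET biosensor (snurportin 1 IBB flanked by EYFP and cerulean), 50 nM, with compound 5 min, then 0.125 microM importin beta in PBS, 1 mM DTT, 0.02% Tween-20, 0.1% BSA. CFP/YFP ratio read after 45 min at room temperature; pre-read flags interference.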
# Active calls of the source: *; ? = inconclusive; · = not tested or not shown; & = joins results of further samples; [ ] = dose if it differs, or a comment.
# A first look (3 entries):
SMILES,Rango release inh,miR-21 reporter,GLA inh pH 4.5,Rango-impB inh
C/C(CCc1ccc2c(c1)OCO2)=N\N=C(/N)SC1CC(=O)N(c2ccc(Cl)cc2)C1=O (centres undefined),5.4%,-2.1%,17.8,5.3%
CCc1ccc(CN(C)CCc2ccccn2)cc1,-4.9%,-4.8%,7.6,5.4%
CCOc1ccc(C(CCc2ccccc2)NC(=O)c2ccccc2OC)cc1OCC (centres undefined),-9.5%,0.5%,-2.2,1.9%

# This part in full, from the first entry:
SMILES,Rango release inh,miR-21 reporter,GLA inh pH 4.5,Rango-impB inh
C/C(CCc1ccc2c(c1)OCO2)=N\N=C(/N)SC1CC(=O)N(c2ccc(Cl)cc2)C1=O (centres undefined),5.4%,-2.1%,17.8,5.3%
CCc1ccc(CN(C)CCc2ccccn2)cc1,-4.9%,-4.8%,7.6,5.4%
CCOc1ccc(C(CCc2ccccc2)NC(=O)c2ccccc2OC)cc1OCC (centres undefined),-9.5%,0.5%,-2.2,1.9%
Cc1ccc(O)c(C2=Nc3ccccc3N=C(c3ccc([N+](=O)[O-])cc3)C2)c1,2.1%,-21.5%,-5.2,-4.0%
O=Cc1cn(CCOc2ccccc2F)c2ccccc12,5.3%,-13.8%,·,-0.4%
Cc1cccc(-c2nsc(SCC(=O)c3ccc(Cl)cc3)n2)c1,5.6%,-20.7%,-19.4,0.6%
O=C(C(=Cc1ccc(F)cc1)c1ccccc1)c1ccc(O)cc1,-2.3%,·,·,1.7%
Brc1ccc2[nH]ncc2c1,22.1%,-6.4%,-8.6,-5.3%
NC(=O)CSc1nc2ccccc2n1Cc1ccccc1,7.6%,-0.4%,-2.2,2.7%
N#Cc1cccc(-n2nnnc2-c2ccc3c(c2)OCO3)c1,2.6%,-31.2%,4.9,0.7%
CC(=O)N1CCN(C(=O)c2ccc(NS(=O)(=O)c3cc(C)ccc3C)cc2)CC1,9.0%,·,·,1.3%
O=C1N=C(c2ccccc2)S/C1=C\c1cccs1,-14.1%,-14.3%,4.5,4.2%
Cc1sc(NC(=O)c2cccc(N3C(=O)CCC3=O)c2)nc1-c1ccccc1,-0.7%,·,·,-1.6%
Cc1cc(NC(=O)CSc2nncn2-c2ccccc2)no1,7.7%,-2.2%,-3.9,0.3%
CCOc1ccccc1OCC(=O)Nc1cc(C)on1,2.9%,·,·,3.1%
COc1ccc2c(CC(=O)NCc3cccs3)coc2c1,?,-32.3%,6.1,?
COC(=O)c1ccc(CSc2nncn2N)cc1,11.8%,4.1%,-11.6,7.5%
CC(=O)Oc1ccc(CC(C(=O)O)N2C(=O)c3ccccc3C2=O)cc1 (centres undefined),0.1%,-2.8%,·,-1.5%
c1ccc(-c2noc(CN3CCN(c4cnccn4)CC3)n2)cc1,2.2%,-12.0%,-0.8,2.6%
O=C(COC(=O)/C=C/c1ccccc1)NC(=O)NC1CCCCC1,?,·,·,1.9%
CN(C)C(CNC(=O)c1cc(Br)ccc1Cl)c1ccco1 (centres undefined),-13.9%,-7.4%,·,-2.7%
CCn1c(=NC(=O)c2ccc(S(=O)(=O)N3CCOCC3)cc2)sc2cccc(OC)c21,-2.3%,4.4%,1.8,?
CCC(=O)NCCc1nc2ccccc2n1CC,9.9%,-4.6%,-0.2,7.7%
O=C(CSc1nc(=O)n(CCCN2CCOCC2)c2c1CCC2)Nc1cccc(F)c1,12.9%,·,·,-0.4%
O=C(CN1CCN(Cc2ccccc2)C1=O)NCc1cccs1,7.5%,-3.4%,-0.6,-0.1%
CC(NC(=O)CCN1C(=O)c2ccccc2C1=O)c1ccccc1 (centres undefined),2.8%,-7.1%,·,0.4%
CCOc1ccc(C(=O)N2CCN(c3cccc(Cl)c3)CC2)cc1,0.9%,-13.5%,-2.6[21.1 µM],-0.2%
COc1cc(/C=N/NC(=S)N/N=C/c2cc(OC)c(OC)c(OC)c2)cc(OC)c1OC,-9.0%,-24.0%,4.1,-0.5%
CCOc1ccc(N2CC(C(=O)Nc3cccnc3)CC2=O)cc1 (centres undefined),16.1%,-4.0%,·,2.8%
CC(=O)c1cn(CC(=O)NCC2CCCO2)c2ccccc12 (centres undefined),18.7%,-2.2%,-3.1,7.9%
Cc1cc(C)cc(N(C(=O)c2csnn2)C(C(=O)NC2CCCCC2)c2cccnc2)c1 (centres undefined),-6.4%,-5.9%,·,-0.8%
COc1cccc(Cn2cnc3c(NS(=O)(=O)c4cccc(Cl)c4Cl)c(C)c(C)cc32)c1,8.5%,22.2%,-9.9,-2.1%
CSc1nnc(CSc2cc(C)nc(N(C)C)n2)o1,1.0%,-10.7%,-0.8,3.7%
CCCn1c(N)c(C(=O)CSc2n[nH]c(-c3ccccc3F)n2)c(=O)n(C)c1=O,8.8%,·,·,0.4%
NC(=O)c1ccc(NC(=O)CN2CCN(C(=O)c3ccco3)CC2)cc1,3.5%,6.1%,·,?
COc1ccc(CCNC(=O)C2(C)CCC(=O)N2CCC(C)C)cc1OC (centres undefined),11.8%,-4.6%,0.0,-1.2%
Cn1c(=O)c2c(nc(NCC(O)CO)n2CCc2ccccc2)n(C)c1=O (centres undefined),8.6%,-2.7%,-0.8,-1.9%
NS(=O)(=O)c1ccc(NC(=O)COc2ncnc3sccc23)cc1,-6.4%,-9.6%,-10.9,0.0%
CC(C(=O)Nc1ccccc1-c1ccccc1)N1CCOCC1 (centres undefined),9.2%,-9.3%,-2.2,-3.9%
COc1ccc(CCNC(=O)CSc2n[nH]c(C)c2[N+](=O)[O-])cc1OC,-17.2%,-5.9%,-2.9,?
Cc1cccc(NC(=S)NCCN(C2CCCCC2)C2CCCC2)c1,3.0%,16.5%,-10.6,0.0%
CCCC(=O)Nc1cccc(NC(=S)NC(=O)C(C)Oc2ccc(Cl)cc2Cl)c1 (centres undefined),8.6%,-1.9%,-11.8,0.0%
COc1ccc(CCNC(=O)c2cnc(C)cn2)cc1,-6.1%,-12.2%,·,4.1%
CCN1CCN(Cc2ccc(NC(=O)c3cc(NC(=O)c4nccnc4N)cc(OC)c3)cc2C(F)(F)F)CC1,-1.7%,0.5%,-18.0,4.3%
CCOC(=O)N1CCN(C(=O)CCc2ccc(S(=O)(=O)NCCc3ccccc3)cc2)CC1,3.3%,8.8%,-6.0,2.6%
COc1cccc(N2CCN(C(=O)c3cc4cc(Cl)ccc4[nH]3)CC2)c1,-20.5%,-5.7%,·,-1.4%
C=CCN(c1ccccc1)S(=O)(=O)c1ccc(Cl)c(C(=O)OCC(=O)NCCCN2CCCC2=O)c1,62.1%,-0.8%,-0.3,?
O=C(/C=C/c1cccc(Br)c1)NCc1ccncc1,0.2%,-0.2%,-5.8,2.9%
Cc1cnc(C)c(N(C)NC(=S)Nc2ccccc2)n1,8.2%,-1.4%,-2.5,2.1%
O=c1c2ccccc2[nH]c(=S)n1C1CCCCC1,0.6%,-8.7%,2.7,0.4%
COC(CNC(=O)c1ccc(CS(=O)(=O)c2ccc(Br)cc2)o1)OC,?,-4.0%,·,5.1%
COc1ccc2c(c1)O[C@H](c1ccc3c(c1)OCO3)[C@@H](OC(=O)Nc1cc(OC)c(OC)c(OC)c1)C2=O,·,11.5%,-6.6&-5.3,·
Cc1ccc(C(=O)N/C(=C/c2ccco2)C(=O)NCCc2c[nH]c3ccccc23)cc1,0.2%,-4.3%,-4.1,3.3%
CCOc1cccc(C(=O)Nc2ccc3[nH]ncc3c2)c1,-11.6%,2.3%,·,2.5%
C=CCSc1nc(-c2ccccc2)c2cc(Cl)ccc2n1,6.5%,-4.2%,-7.2,0.4%
COc1ccccc1CNC(=O)c1ccccc1C(=O)NC(CC(C)C)C(=O)NCc1ccccc1OC (centres undefined),-6.8%,0.6%,·,4.4%
O=c1cc(CN2CCOCC2)c2cc(Cl)c(O)cc2o1,?,-4.0%,·,2.1%
OCCCNc1nc(-c2ccccc2)c2cc(Cl)ccc2n1,?,·,·,?
CC(C)NC(=O)c1ccc2c(c1)nnn2C,10.3%,-6.7%,-2.1,4.5%
CC1CC1C(=O)N1CCN(S(=O)(=O)c2cccc(F)c2)CC1 (centres undefined),15.4%,·,·,0.2%

# Further results:
SMILES,Rango release inh,miR-21 reporter,GLA inh pH 4.5,Rango-impB inh
COc1ccc(N2CCN(C(=O)C3COc4ccccc4O3)CC2)cc1 (centres undefined),-2.2%,1.3%,-0.8,0.4%
CC(C)[C@H](NC(=O)c1ccccc1)C(=O)Nc1cccc(S(=O)(=O)N2CCOCC2)c1,1.5%,·,·,-0.7%
COc1ccc(/C=C(\C#N)c2cc(OC)c(OC)cc2[N+](=O)[O-])cc1,8.8%,-2.8%,-4.6,-0.2%
COc1cc(CNc2ccccc2)c([N+](=O)[O-])cc1OC,7.8%,-1.9%,·,5.5%
Cc1cc(Nc2ncc(Cl)cc2Cl)n(-c2ccccc2)n1,4.8%,-9.9%,3.9,-3.9%
CCOc1ccc2nc(N3CCC(C(=O)N4CCN(c5ncccn5)CC4)CC3)sc2c1,2.0%,-27.8%,4.4,6.5%
CCC(C)(C(=O)NC1CCCC1)N(C(=O)Cc1cccs1)c1c(C)n(C)n(-c2ccccc2)c1=O (centres undefined),-2.0%,-1.0%,9.3,-1.3%
COc1ccccc1C(=O)NCC(=O)Nc1cccnc1,·,-5.4%,-10.0,·
COc1cc([N+](=O)[O-])c2nc(C=NNC(N)=S)ccc2c1,20.2%,·,·,-0.5%
CCOc1ccccc1Nc1ccc2nonc2c1[N+](=O)[O-],12.3%,-5.3%,·,0.0%
CC(c1nnnn1C(C)(C)C)N(Cc1cccnc1)Cc1ccccc1Cl (centres undefined),2.7%,-0.8%,-0.4,5.3%
Cc1c(Br)c([N+](=O)[O-])nn1CC(=O)N1CCN(C23CC4CC(CC(C4)C2)C3)CC1,12.0%,2.9%,·,-0.3%
COc1ccc(CCC(=O)NCCS(=O)(=O)N2CCN(c3ccccc3F)CC2)cc1,-23.5%,·,·,-0.4%
Cc1onc(-c2ccccc2)c1C(=O)N[C@@H]1C(=O)N2[C@@H]1SC(C)(C)[C@@H]2C(=O)O,·,0.1%,6.2,·
Cc1cccnc1NC(=O)C1CCCN(S(=O)(=O)c2ccc3c(c2)oc(=O)n3C)C1 (centres undefined),-13.2%,-0.8%,4.7,1.0%

# Fetched one by one from the list above, 3 records:
SMILES,Rango release inh,miR-21 reporter,GLA inh pH 4.5,Rango-impB inh
Cc1cc(Nc2ncc(Cl)cc2Cl)n(-c2ccccc2)n1,4.8%,-9.9%,3.9,-3.9%
COc1cc(CNc2ccccc2)c([N+](=O)[O-])cc1OC,7.8%,-1.9%,·,5.5%
COc1ccc(/C=C(\C#N)c2cc(OC)c(OC)cc2[N+](=O)[O-])cc1,8.8%,-2.8%,-4.6,-0.2%

# (more compounds)
SMILES,Rango release inh,miR-21 reporter,GLA inh pH 4.5,Rango-impB inh
Cc1onc(-c2ccccc2)c1-c1n[nH]c(=S)n1-c1ccc(C(=O)O)cc1,-6.2%,-4.3%,3.0,-0.1%
Cc1ccc(-n2c(SCn3nnc4ccccc4c3=O)nnc2-c2cccnc2)c(C)c1,-14.6%,-15.1%,-6.8,-3.2%
CC1CCN(S(=O)(=O)c2ccc3ncn(CC(=O)N(C)C4CCCCC4)c(=O)c3c2)CC1,-1.5%,3.0%,4.6,2.5%
CCCCOc1ccc(C(=O)N/C(=C/C=C/c2ccccc2)C(=O)N2CCOCC2)cc1,-22.1%,-4.4%,-15.3,-0.3%
CC(C)CCNC1=NCCCCC1,13.7%,-4.2%,10.4,3.4%
CCCCCCCCCC(=O)NNC(=O)c1c(O)c2ccccc2n(CCC)c1=O,-3.2%,0.3%,-1.3,-3.4%
O=C(O)c1cn2c3c(ccc(Cl)c3c1=O)OCC2,15.8%,3.3%,·,3.8%
O=C(Cc1cccs1)NCCS(=O)(=O)N1CCN(c2ccccc2F)CC1,2.0%,·,·,1.3%
CC1(C)Cc2c(C#N)c(NC3CCCCC3)nc(-c3ccco3)c2CO1,·,9.7%,27.3,·
O=C1CSc2ccccc2N1Cc1ccccc1F,27.0%,0.9%,-1.9,-0.7%
Cc1ccc(S(=O)(=O)N(C)C)cc1NC(=S)Nc1ccc2[nH]c(=O)[nH]c2c1,0.0%,-1.6%,-5.6,?
Cc1cc(NC(=O)CSc2nnc(-c3cccc(F)c3)n2N)no1,-6.8%,·,·,0.2%

# Compound activity: PubChem BioAssay, National Center for Advancing Translational Sciences (NCATS)

# An excerpt (hit frequency here may not be typical).
